Beta cell apopt – blocks beta cell apoptosis. hit rate 0.8% among 300,000. protection from apoptosis, % (no concentration beside the values). INS-1E cytokine-induced death, ATP luminescence, 48 h; percent of positive-control rescue, neutral wells zero. AID 435005;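 active means all replicates at 75% or more, or half of them and the mean; inconclusive means half reach 75% but not the mean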;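 further: 0% = cytokine-treated negative control wells and 100% = positive control rescue; higher means more ATP so stronger rescue from cytokine killing; wells of about 40 µL received 100 nL stock; the first replicate is given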
A1 inh – inhibitors of the anti-apoptotic protein A1, read as caspase activation. MEF A1-2A-BIM cells, Caspase-Glo 3/7 luminescence, 3 h; percent of clofoctol response, vehicle zero. hit rate 0.066% among 330,000. caspase activation, % (test concentration not listed);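 active means over half of replicate activation scores above 10%, or exactly half above 10 with the replicate mean above 10; inconclusive means replicate mean below 10 yet half the replicates above 10; inactive means over half of replicates below 10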;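 further: wells of about 30 µL received 50 nL stock; many hits fall short of the cut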
T cruzi inh – blocks replication of Trypanosoma cruzi | T. cruzi beta-gal in NIH3T3, luminescence, 90 h | hit rate 1.4% among 300,000 | inhibition, % (concentration not given with the values);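 active means mean inhibition across valid replicates above about 55%, limit read from the data; inconclusive means mean below that limit but half or more replicates reach it; inactive means mean below it, under half of replicates reach it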;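 further: signal also drops with host cell toxicity which is not excluded here; 0% = plate median of DMSO wells and 100% = zero luminescence signal; higher percent means less beta-gal luminescence so fewer parasites; stock transfer was 50 nL into about 50 µL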
LANA-H2A inh – blocks KSHV LANA binding to histone H2A/H2B | cell-free LANA-H2A/H2B peptide, fluorescence polarization | inhibition, % (no concentration beside the values) | hit rate 0.6% among 320,000 | AID 2629; in the data active means inhibition mostly above about 10%, no sharp cut-off; inactive means mostly below about 6.7%;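 further: stock transfer was 7.5 nL into about 10 µL; 0% = median of vehicle wells and 100% = median of positive control wells; one replicate is shown; the record names a cut of 25% in any replicate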
Target sequence (Q9QR71 whole entry, looked up): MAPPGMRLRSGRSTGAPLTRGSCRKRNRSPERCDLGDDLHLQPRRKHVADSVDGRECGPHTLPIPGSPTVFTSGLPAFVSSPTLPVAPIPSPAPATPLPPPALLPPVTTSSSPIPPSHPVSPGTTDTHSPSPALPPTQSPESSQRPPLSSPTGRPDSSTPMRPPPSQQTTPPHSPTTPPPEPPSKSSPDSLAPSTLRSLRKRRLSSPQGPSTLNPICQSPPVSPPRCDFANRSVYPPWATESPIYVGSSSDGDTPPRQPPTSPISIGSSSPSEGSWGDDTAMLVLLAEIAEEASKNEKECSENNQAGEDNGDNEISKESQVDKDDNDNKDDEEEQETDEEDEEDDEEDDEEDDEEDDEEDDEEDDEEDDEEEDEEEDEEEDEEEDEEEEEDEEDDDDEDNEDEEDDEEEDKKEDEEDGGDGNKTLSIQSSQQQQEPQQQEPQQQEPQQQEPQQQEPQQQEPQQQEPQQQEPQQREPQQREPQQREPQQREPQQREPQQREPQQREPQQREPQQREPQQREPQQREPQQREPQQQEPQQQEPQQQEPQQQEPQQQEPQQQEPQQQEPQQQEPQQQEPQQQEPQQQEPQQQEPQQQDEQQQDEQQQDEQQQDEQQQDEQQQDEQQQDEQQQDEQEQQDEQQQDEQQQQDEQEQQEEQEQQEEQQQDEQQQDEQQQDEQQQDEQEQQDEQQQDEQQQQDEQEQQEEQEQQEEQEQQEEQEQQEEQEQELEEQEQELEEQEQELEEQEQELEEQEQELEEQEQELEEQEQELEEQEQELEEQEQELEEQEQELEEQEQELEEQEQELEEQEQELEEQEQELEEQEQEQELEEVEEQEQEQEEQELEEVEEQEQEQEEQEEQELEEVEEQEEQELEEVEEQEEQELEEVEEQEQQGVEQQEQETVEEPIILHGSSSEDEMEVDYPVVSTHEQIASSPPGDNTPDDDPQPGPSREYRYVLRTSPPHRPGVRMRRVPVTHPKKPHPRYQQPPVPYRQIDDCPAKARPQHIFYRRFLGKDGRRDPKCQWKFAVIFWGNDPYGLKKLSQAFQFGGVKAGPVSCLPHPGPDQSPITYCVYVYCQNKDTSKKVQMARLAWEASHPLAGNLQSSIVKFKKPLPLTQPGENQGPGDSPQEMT
RanGTP-Impb inh – disruptors of Ran-importin-beta complex formation – biochemical, FRET, CFP-Ran, YFP-importin-beta, homogeneous, primary screen | cell-free CFP-Ran/YFP-importin-beta FRET ratio | inhibition, % (concentration not given with the values) | hit rate 1.1% among 300,000 | AID 2216;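 active means most replicates above 15%; inconclusive means exactly half above 15%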;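 further: 0% = DMSO wells and 100% = Ran loaded with GDP instead of GTP; wells of about 40 µL received 100 nL stock; the first replicate is given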
AF4-AF9 inh – blocks AF4 peptide binding to human AF9; P42568; AlphaScreen, biotin-AF4 peptide binding to FLAG-AF9; inhibition, % at 10 µM; hit rate 0.47% among 350,000; AID 651704;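 active means every replicate reaching a set inhibition limit, whatever the replicate mean, cut at about 25% in these data; inconclusive means mean inhibition reaches that limit but some replicates miss it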;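 further: 0% = plate neutral control median and 100% = total signal loss; the record names both 10 and 1 µM as test concentration; the first replicate is given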
Vif A3G – inhibitors of Vif binding to APOBEC3G peptide, primary screen, biochemical, TR-FRET, GST-Vif 1-94, biotin-A3G peptide, dose response retest (AID 1117319). TR-FRET GST-Vif / biotin-A3G peptide binding; higher % means a stronger effect; test concentration not given here; strong numbers were not always called active. one-dose inhibition, %; IC50 in µM for titrated hits. hit rate 0.57% among 260,000;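 active means above the screen mean plus three standard deviations and confirmed in dose response; inconclusive means results disagree or hit not tested in dose response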;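 further: Vif residues 1-94 fused to GST binding biotinylated APOBEC3G peptide 110-148; 0% = full assay without inhibitor and 100% = GST in place of GST-Vif; retest series ran down from 100 µM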
Calb FLC – affects C. albicans growth with fluconazole | growth inhibition, % (no concentration beside the values) | hit rate 0.57% among 300,000 | C. albicans CaCi-2 (fluconazole-resistant clinical isolate) + fluconazole, Alamar Blue growth, 48 h;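 active means most replicates above 75%; inconclusive means exactly half above 75%; inactive means most below 75%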;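 further: all wells also contain fluconazole at 8 µg/ml as a sub-toxic cotreatment; 0% = median of DMSO wells and 100% = median of geldanamycin control wells; wells of about 8 µL received 7.5 nL stock; the first replicate is given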
* hit, by the source's call; ? = inconclusive; . = no result given; & = joins results of further samples.

SMILES	Beta cell apopt	A1 inh	T cruzi inh	LANA-H2A inh	RanGTP-Impb inh	AF4-AF9 inh	Vif A3G	Calb FLC
O=C(Nc1ccccc1N1CCOCC1)c1cc(Cl)c2c(c1)OCO2	-2	0.2	.	3.5	.	-15	1%	.
COc1ccc(Cl)cc1N/C(N)=N/c1nc(C)cc(C)n1	18	-0.4	19	2.5	2.6	-1.4	.	-3
COc1cc(NS(=O)(=O)c2ccc(NC(=S)NC(=O)COc3ccccc3OC)cc2)nc(OC)n1	-6	-1.0	-7	0.7	-1.0	-4.0	7%	-4
COc1cccc(OC)c1C(=O)NNC(=O)c1ccccc1-n1cccc1	-5	-0.2	6	-3.4	4.4	-1.8	-12%	8
OCCCn1c(C2CCCN2c2nc(-c3ccc(F)cc3)cs2)nc2cc(C(F)(F)F)ccc21 (stereo not drawn)	-5	-1.2	30	3.7	-6.1	.	.	5
OC(CCN1CCC2(CC1)OCCO2)C(F)(F)F (stereo not drawn)	1	-0.4	-20	.	3.6	-1.6	14%	5
CCOC(=O)[C@H]1[C@H]2COc3ccc(Cl)cc3[C@@H]2N2C(=O)CN(CC3CCCO3)C(=O)[C@@]12C (stereo partly drawn)	-1	-0.2	.	-0.4	.	0.0	.	.
Cc1cc(C(=O)N2CCCC(C(=O)c3cc(F)ccc3F)C2)c(C)o1 (stereo not drawn)	-6	-0.2	-3	3.9	4.2	-13	6%	1
CCN(CC)S(=O)(=O)c1ccc2[nH]cc(C(=O)NCCc3ccc(OC)c(OC)c3)c(=O)c2c1	0	-0.1	6	1.9	-2.2	.	-2%	4
Cc1nc2ccc(NC(=O)NC(=O)c3c(Cl)cccc3Cl)cc2o1	.	0.1	-11	3.7	3.5	0.5	3%	-1
Cc1c(Cl)cccc1NC(=S)NCC(C)C	-7	-0.2	-28	11	-1.8	-0.4	-5%	?
Cc1ccc2nc(-c3ccc(NC(=O)Cc4cccs4)cc3)[nH]c2c1	33	-0.3	5	-7.6	1.2	-9.4	-1%	7
CN(C)N1C(N)=C(C#N)C(c2cccnc2)C2=C1CCCC2=O (stereo not drawn)	-1	0.8	-18	-3.6	1.4	.	11µM*	0
CCn1nnc2c(=O)oc3ccccc3c21	-10	0.4	0	4.8	?	-0.3	3%	-2
CC1C=CC(C)C(C(=O)O)C1C(=O)O (stereo not drawn)	0	1.2	2	-0.2	2.9	.	21%	2
Cc1nnc(C)n1/N=C/c1ccc(C(=O)O)cc1	0	-0.5	-5	0.2	2.3	.	17%	-5
COc1cc(C(=O)CSc2nnc(-c3ccc(O)cc3)n2CC2CCCO2)ccc1NC(C)=O (stereo not drawn)	-15	0.0	-22	15	-0.3	.	?	-9
O=C(Nc1cccc(-c2cc3ccccc3oc2=O)c1)c1ccc(Br)o1	5	-0.6	21	3.4	-0.5	.	5%	-3
CC(OC(=O)c1nccnc1N)C(=O)Nc1ccc(S(=O)(=O)N2CCCC2)cc1 (stereo not drawn)	-7	0.3	3	.	0.6	-1.3	7%	6
N#Cc1ccc(OCC(=O)N2CCN(S(=O)(=O)c3cccc(Cl)c3)CC2)cc1	6	-0.5	.	0.6	.	-3.8	.	.
CCOC(=O)c1sc(NC(=O)CN2CCCC2)c(C(=O)OCC)c1C	-2	0.4	17	-1.7	1.8	.	11%	17
O=C(CCN1C(=O)[C@H]2CC=CC[C@H]2C1=O)NCc1nc(-c2ccccc2)no1	-7	-0.5	-3	-2.2	3.2	-5.4	.	10
C/C(=N\NC(=S)Nc1c(C)cccc1C)c1ccc(O)cc1	1	0.3	-6	-0.3	-2.4	0.3	3%	-11
O=C(Cc1ccccc1F)Nc1nc(-c2cccs2)cs1	-3	-0.6	0	2.0	-3.2	.	-2%	-5
O=C(Nc1nccs1)c1ccc(-c2ccc([N+](=O)[O-])cc2)o1	3	-0.3	14	-4.0	-74	1.2	2%	6
O=C(NCc1ccccc1)Nc1cccn(Cc2ccc(Cl)cc2)c1=O	2	0.2	7	2.7	3.1	0.2	1%	14
CSc1cccc(NC(=O)C2C3C=CC4(O3)C2C(=O)N(CCCN2CCOCC2)C4C(=O)NC2CCCCC2)c1 (stereo not drawn)	1	0.3	-2	0.6	-4.4	1.6	.	-3
Cc1cc(C)cc(N(CCC#N)C(=O)COC(=O)c2ccccc2SCC(=O)N2CCCC2)c1	-1	1.5	-2	-2.9	6.5	-1.4	-8%	5
Nc1nc(-c2ccc(Br)cc2)cc(C(F)(F)F)n1	2	0.5	1	1.5	?	.	-5%	-13
Cc1c[n+]([O-])cc(C)c1Oc1ccccc1	-1	1.7	0	0.1	1.1	?	.	1

Arranged by molar mass (rising): some entries from above
SMILES	Beta cell apopt	A1 inh	T cruzi inh	LANA-H2A inh	RanGTP-Impb inh	AF4-AF9 inh	Vif A3G	Calb FLC
Cc1c[n+]([O-])cc(C)c1Oc1ccccc1	-1	1.7	0	0.1	1.1	?	.	1
C/C(=N\NC(=S)Nc1c(C)cccc1C)c1ccc(O)cc1	1	0.3	-6	-0.3	-2.4	0.3	3%	-11
O=C(Nc1nccs1)c1ccc(-c2ccc([N+](=O)[O-])cc2)o1	3	-0.3	14	-4.0	-74	1.2	2%	6
O=C(Cc1ccccc1F)Nc1nc(-c2cccs2)cs1	-3	-0.6	0	2.0	-3.2	.	-2%	-5
O=C(CCN1C(=O)[C@H]2CC=CC[C@H]2C1=O)NCc1nc(-c2ccccc2)no1	-7	-0.5	-3	-2.2	3.2	-5.4	.	10

(continued)
SMILES	Beta cell apopt	A1 inh	T cruzi inh	LANA-H2A inh	RanGTP-Impb inh	AF4-AF9 inh	Vif A3G	Calb FLC
O=C(NC1CCN(C(=S)Nc2ccc(F)cc2)CC1)c1ccco1	1	0.1	-11	2.5	1.2	2.3	.	-3
c1ccc(CN2CCN(c3ncnc4c3[nH]c3ccccc34)CC2)cc1	65	0.7	14	0.7	5.7	.	5%	14
O=c1c(-c2ccco2)[n+]([O-])c2ccccc2n1OCc1c(F)cccc1F	10	-0.1	5	1.6	5.6	.	16%	6
O=C1CC2(CCCC2)Oc2ccccc21	-4	1.1	-11	7.7	-2.9	-5.4	.	15
Cc1ccc(S(=O)(=O)CCC(=O)OCc2ccc(S(=O)(=O)C(C)C)cc2)cc1	-4	0.4	4	-3.8	2.9	-1.3	-2%	-7
CC(C)c1ccc(OC(=O)c2ccc3c(=O)n4c(nc3c2)CCC4)cc1	.	-0.7	-7	-5.1	2.8	2.6	4%	0
COc1ccc(-c2cc(C3CCN(c4ccc(C(C)=O)cc4[N+](=O)[O-])CC3)[nH]n2)cc1	3	-0.4	63*	-1.4	6.2	.	5%	-7
Fc1ccc(-c2csc3[n+]2CCS3)cc1	3	-0.2	-4	1.3	1.4	.	26%	-63
Cn1c(=O)[nH]c(=O)c2c1nc1n2CC(COc2ccc3ccccc3c2)O1 (stereo not drawn)	0	-0.1	8	-1.9	3.4	.	-3%	17
O=C(CSCc1cccc(CSCC(=O)Nc2ccc3ccccc3c2)n1)Nc1ccc2ccccc2c1	6	0.3	13	-3.5	?	.	?	-14

Rewritten with values under each structure: entries from further up
Results follow in this order: Beta cell apopt, A1 inh, T cruzi inh, LANA-H2A inh, RanGTP-Impb inh, AF4-AF9 inh, Vif A3G, Calb FLC
> O=c1c(-c2ccco2)[n+]([O-])c2ccccc2n1OCc1c(F)cccc1F
→ 10, -0.1, 5, 1.6, 5.6, ., 16%, 6
> O=C1CC2(CCCC2)Oc2ccccc21
→ -4, 1.1, -11, 7.7, -2.9, -5.4, ., 15
> Cc1ccc(S(=O)(=O)CCC(=O)OCc2ccc(S(=O)(=O)C(C)C)cc2)cc1
→ -4, 0.4, 4, -3.8, 2.9, -1.3, -2%, -7
> CC(C)c1ccc(OC(=O)c2ccc3c(=O)n4c(nc3c2)CCC4)cc1
→ ., -0.7, -7, -5.1, 2.8, 2.6, 4%, 0

(cont.)
SMILES	Beta cell apopt	A1 inh	T cruzi inh	LANA-H2A inh	RanGTP-Impb inh	AF4-AF9 inh	Vif A3G	Calb FLC
Cc1ccc2occ(/C=C/C(=O)O)c(=O)c2c1	5	-6.0	-12	6.9	3.8	.	19%	-7
COc1ccc(S(=O)(=O)N2CCCCCC2)cc1N(C)S(=O)(=O)c1ccc(Cl)cc1	12	0.6	64*	1.5	-0.9	.	-7%	5
CCOc1ccc(S(=O)(=O)NCCc2ccccn2)cc1	-2	0.1	.	1.9	.	-1.4	-6%	.
CN(Cc1ccc(C(C)(C)C)cc1)C(=O)C1CCN(C(=O)Nc2ccccc2)CC1	-2	-0.2	2	2.2	6.7	1.9	1%	-2
Cc1nn(C)c(Cl)c1CN1CCCC(C(=O)Nc2cccc(-n3cccn3)c2)C1 (stereo not drawn)	-4	-1.5	12	2.4	-0.6	3.8	-3%	3
COc1ccccc1NC(=O)CC1S/C(=N/N=C(\C)C2CCCCC2)NC1=O (stereo not drawn)	-5	0.1	1	-10	6.6	-3.1	3%	7
CC(C)(C)NC(=O)COc1ccc(CNc2ccc3[nH]c(=O)[nH]c3c2)cc1	-9	0.1	-8	1.6	12	.	?	?
O=C(N/N=C/C(Cl)=C\c1ccccc1)c1cccs1	5	-4.8	6	-5.6	0.2	3.1	11%	-13
Cc1ncoc1C(=O)NCc1ccccc1Cl	-1	0.0	-14	-0.8	2.3	5.8	-5%	-7
COc1cccc(CC2(CO)CCCN(Cc3ccc4c(c3)OCCO4)C2)c1 (stereo not drawn)	-4	0.3	52	1.7	7.2	-0.8	10%	-31

Records above marked active in Vif A3G.
smiles	LANA-H2A inh	RanGTP-Impb inh	AF4-AF9 inh	Vif A3G
CN(C)N1C(N)=C(C#N)C(c2cccnc2)C2=C1CCCC2=O (stereo not drawn)	-3.6	1.4	.	11µM*

Quoted at random: two entries already listed.
SMILES	Beta cell apopt	A1 inh	T cruzi inh	LANA-H2A inh	RanGTP-Impb inh	AF4-AF9 inh	Vif A3G	Calb FLC
Cc1nn(C)c(Cl)c1CN1CCCC(C(=O)Nc2cccc(-n3cccn3)c2)C1 (stereo not drawn)	-4	-1.5	12	2.4	-0.6	3.8	-3%	3
COc1ccccc1NC(=O)CC1S/C(=N/N=C(\C)C2CCCCC2)NC1=O (stereo not drawn)	-5	0.1	1	-10	6.6	-3.1	3%	7

(list continues)
SMILES	Beta cell apopt	A1 inh	T cruzi inh	LANA-H2A inh	RanGTP-Impb inh	AF4-AF9 inh	Vif A3G	Calb FLC
O=C(C1=C(O)C(=O)N(Cc2ccco2)C1c1cccc([N+](=O)[O-])c1)c1ccco1 (stereo not drawn)	1	-1.9	-17	-0.8	8.2	-2.3	.	1
O=C(c1cc([N+](=O)[O-])ccc1N1CCCC1)N1CCCC1	-3	-0.6	-16	0.5	-2.9	3.1	.	9
COc1ccc(NC(=O)CSc2ncnc3sc(C)cc23)cc1	0	-0.3	0	0.7	5.9	0.8	.	-14
N=c1c2c(-c3ccccc3)c(-c3ccccc3)oc2ncn1CCN1CCOCC1	.	0.5	44	-4.6	11	.	4%	39
COc1ccc(CN(Cc2ccccn2)C(=O)CN2C(=O)C(C)Oc3ccccc32)cc1 (stereo not drawn)	-7	0.6	12	3.2	0.7	.	-2%&-2%	6
Cc1c(Cl)cccc1NC(=O)CSc1nc2c(c(=O)[nH]1)CCCC2	-2	-0.2	-12	-2.3	-4.4	.	-4%	4

Source: PubChem
